Compound activity from PubChem BioAssay.
HCMV UL50-53 inh = inhibitors of HCMV UL50-UL53 nuclear egress complex interaction; HTRF UL50-UL53 interaction, normalized percent inhibition; actives 0.15% (n = 190,000); AID 1918969; inhibition, % (no concentration beside the values);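 active = both replicates at 50% or more, plus weaker picks with an unusually low signal ratio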;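 note: stock transfer was 100 nL into about 20 µL; 0% = negative control wells and 100% = wells with untagged competitor protein; inactives centre near -12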
GIV-Gai inh = inhibitors of GIV GBA-motif binding to rat Galpha-i3; Galpha-i3/FITC-GIV peptide fluorescence polarization, 90 min; hits give low values; scaled: aluminum fluoride 0%, vehicle 100%; percent of control (FP), % (test concentration not listed); actives 0.42% (n = 210,000); AID 1224905;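 active = replicate mean at 85% of control or lower, very high polarization wells dropped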;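 note: wells of about 15 µL received 100 nL stock; the first replicate is given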
Target sequence (P08753 whole entry, looked up): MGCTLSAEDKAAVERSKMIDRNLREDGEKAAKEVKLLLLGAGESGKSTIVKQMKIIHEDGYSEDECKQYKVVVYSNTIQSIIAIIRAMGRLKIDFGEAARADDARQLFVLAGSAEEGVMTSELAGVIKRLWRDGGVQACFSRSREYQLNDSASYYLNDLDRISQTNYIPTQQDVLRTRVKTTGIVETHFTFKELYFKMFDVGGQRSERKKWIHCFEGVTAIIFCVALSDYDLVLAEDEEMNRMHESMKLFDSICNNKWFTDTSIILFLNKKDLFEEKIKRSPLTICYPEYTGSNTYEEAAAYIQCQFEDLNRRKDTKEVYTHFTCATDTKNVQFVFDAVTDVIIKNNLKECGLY
Sa growth 42C = inhibitors of Staphylococcus aureus growth at 42 °C | relative growth, % (no concentration beside the values) | AID 720641 | S. aureus RN4220 growth, OD600, 20 h; hits give low values | actives 0.53% (n = 170,000);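 active = growth at 42 °C up to 50% and 20 or more points under that at 30 °C, or under 10% at both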;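 note: 300 nL library stock went into each well; scaled to the means of positive and negative controls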
Sa growth 42C second temp = also measured in Sa growth 42C; calls as there; relative growth, %; measured here: growth at 30 °C;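 optical density after 20 h as mean of two plates; 100% = untreated growth and lower means inhibition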
* marks the source's active call; other numbers are inactive results; . = not tested or not shown; & = joins results of further samples.

SMILES	HCMV UL50-53 inh	GIV-Gai inh	Sa growth 42C	Sa growth 42C second temp
COc1ccc(-c2cc(C(=O)N3CCOCC3)c3ccccc3n2)cc1	-14	102	.	.
CC1(C)NC(C(=O)O)C(C)(C)S1 (stereo not given)	4	108	92	91
Cc1ccc(Cn2nc(C)c(NC(=O)c3cnn4c(C(F)F)cc(-c5ccccc5)nc34)c2C)cc1	-14	107	.	.
CN(C)C(=O)c1ccc2c(c1)N(CC(=O)NCc1ccc3c(c1)OCO3)C(=O)CS2	3	108	.	.
CCC(=O)N(c1nnc(SCC(=O)NC(=O)c2ccccc2OC)s1)C1CC1	-16	.	97	87
COc1ccc(-c2nc(CN3CCC(C(=O)NCCCOC(C)C)CC3)c(C)o2)cc1OC	-31	104	86	94
COCCOC(=O)C1=C(C)OC(N)=C(C#N)C1c1ccc(Br)cc1 (stereo not given)	-12	103	.	.
CC(C)C12CN3CC(C(C)C)(CN(C1)C31C(=O)Nc3ccccc31)C2=O (stereo not given)	-8	104	.	.
COc1cc(OC)cc(C(=O)N2CC(OCc3ccc(F)cc3)C2)c1	-19	100	.	.
COc1cccc(CNC(=O)C2CCN(C(=O)c3sccc3-n3cccc3)CC2)c1	-18	99	102	88
Cc1ccc(-c2nnn3c2nc(N2CCC(C)CC2)c2ccccc23)cc1	-28	110	109	86
COC(=O)c1cccc(NC(=O)c2c(-c3ccccc3Cl)noc2C)c1	-10	104	.	.
CC(C)c1cc(NS(=O)(=O)c2ccccc2)c(O)c(C(C)C)c1	.	102	80	66
COc1ccc(S(=O)(=O)n2nc(C)c(S(=O)(=O)N3CCC(C)CC3)c2C)cc1C	.	106	70	92
CC(=O)c1cccc(NC(=O)c2ccc(-n3c(C)nnc3C)cc2)c1	.	102	101	91
COC(=O)c1cc2c(=O)n3ccccc3nc2n(C(C)C)c1=N	.	116	79	91
Cc1cccc(N2CCN(Cc3ccco3)CC2)c1C	-2	94	110	95
Cc1c(C(=O)Nc2ccccc2Br)oc2ccc(S(=O)(=O)N3CCOCC3)cc12	.	104	116	96
Cn1c(CCCCN)nc2ccccc21	5	106	76	59
O=C(CCC(=O)Nc1ccc(S(=O)(=O)N2CCCCC2)cc1)Nc1ccc(S(=O)(=O)N2CCCCC2)cc1	7	103	95	94
Cc1ccccc1C(=O)Nc1ccc2c(c1)CCC(=O)N2C	-16	99	.	.
Cc1ccccc1-c1noc(-c2cccnc2NCc2ccco2)n1	-18	100	97	72
CCc1ccc(C2=C(C)C(=O)N(CC(=O)Nc3c(F)cc(F)cc3Br)S2(=O)=O)cc1	-2	94	.	.
CCCCNC(=O)C(CC)Sc1nc2ccccc2c(=O)n1CCc1ccc(OC)c(OC)c1 (stereo not given)	.	107	86	103
COc1ccc(C2(C(=O)NCc3ccco3)CCOCC2)cc1	.	105	106	85
Further results
SMILES	HCMV UL50-53 inh	GIV-Gai inh	Sa growth 42C	Sa growth 42C second temp
COCCN(Cc1ccco1)C(=O)c1cc2c(s1)-c1ccccc1OC2	-26	95	87	66
CCn1nc(C)c2c1c(=O)n(Cc1ccccc1)c(=O)n2Cc1c(F)cccc1Cl	18	97	.	.
Cn1c(=O)c2c(C3C(=O)Nc4ccccc43)c(-c3ccccc3Cl)[nH]c2n(C)c1=O (stereo not given)	-23	113	.	.
O=C(Cn1cnc2ccccc21)OCC(=O)N1CCc2ccccc21	-35	.	97	78
CCCCCSc1nc2ccccc2[nH]1	-8	96	.	.
Cc1ccc(C)c(C(=O)c2c(N)c(-c3nc(-c4ccc5c(c4)OCO5)cs3)c3ccccn23)c1	-15	104	111	89
Cc1ccc(CSc2nc3ccncc3n2CC(=O)N(C)c2ccccc2)cc1	.	105	87	72
O=C(/C=C/c1ccco1)Nc1ccc(CN2CCOCC2)cc1	.	104	99	87
OC1(/C=C/CN2CCCCC2)CCCCC1	-10	.	75	89
O=C1CCCc2nc(Nc3nc4ccccc4s3)ncc21	6	106	69	86
Cc1nc2nc3c(c(N4CCN(Cc5ccc6c(c5)OCO6)CC4)n2n1)CCCC3	-15	101	.	.
CCOc1ccc(N(CC(=O)NCc2ccc(OC)cc2)S(=O)(=O)c2c(C)[nH]c(=O)[nH]c2=O)cc1	-23	106	104	83
O=C1c2ccccc2C(=O)C1c1ccc(F)cc1	-11	96	108	97
CCc1ccc(CNCc2c(C(=O)O)n(Cc3ccc(C)cc3)c3cc(C)ccc23)cc1	.	107	91	82
Cc1ccc2[nH]c(=O)c(-c3noc(CCCC(=O)NCC4CCCO4)n3)cc2c1 (stereo not given)	-48	109	.	.
CCOC(=O)C1=C(C)NC(C)=C(C(=O)OCC)C1C1=COCCO1	-18	102	105	86
Cc1ccc(C(=O)CC2(O)C(=O)N(CCc3ccccc3)c3ccc(Br)cc32)cc1 (stereo not given)	-26	106	83	75
Cc1cc(C(=O)COC(=O)CC2Sc3ccccc3NC2=O)c(C)n1C (stereo not given)	-29	.	78	87
CCCN(CCC)C(=O)C1=C(C)C(=O)OC12CCC(C)CC2 (stereo not given)	-11	103	95	90
Cn1c(Oc2ccc(F)cc2)nc2c1c(=O)n(Cc1ccccc1Cl)c(=O)n2C	-31	106	94	92
CCCCn1c(C)c(C)c2c1ncn1nc(Cc3ccccc3)nc21	-27	103	.	.
CCOC(=O)c1sc2sc(C(=O)OCC)c(C)c2c1C	7	105	98	94
O=C(Nc1nccs1)c1nc(SCc2ccccc2)ncc1Sc1ccccc1	-24	98	.	.
Oc1oc(C=Nc2ccc(OC(F)(F)F)cc2)c2ccccc12	-8	100	.	.
CC1CC(=O)Nc2ccccc2N1C(=O)c1ccc(F)cc1 (stereo not given)	0	103	.	.
The list goes on:
SMILES	HCMV UL50-53 inh	GIV-Gai inh	Sa growth 42C	Sa growth 42C second temp
FC(F)(F)c1cccc(N=Cc2ccccc2)c1	-36	.	96	45
Cc1ccc(-c2cc3cc(C)c(C#N)c(N4CCCCCC4)n3c2)cc1	-18	.	100	99
CNc1cc(C(F)(F)F)c(C(=O)Nc2ccc(Cl)cc2Cl)cn1	-8	105	125	71
CCC1C(=O)NCCN1C(=O)c1ccc(Br)o1 (stereo not given)	-7	107	103	93
O=C1CSC(=NC2CCCC2)N1	-11	.	93	92
COC(=O)C1=C(c2ccccc2)c2ccccc2S(=O)(=O)N1CC(=O)Nc1ccccc1C(F)(F)F	-6	98	93	86
CCc1cc2c(cc3c(=O)n(CC(=O)N4CCN(c5cccc(C)c5C)CC4)nc(CC)n32)s1	-27	99	109	90
CCN(CC)S(=O)(=O)c1ccc(N2CCc3cc(OC)c(OC)cc3C2)nc1	-31	.	63	70
Cc1ccccc1NC(=O)Cc1nc(Cn2cc(S(=O)(=O)N3CCCC3)ccc2=O)cs1	-10	.	95	90
Cc1n[nH]c(C)c1S(=O)(=O)N(CC(=O)Nc1ccc(C(F)(F)F)cc1)c1ccc(C(C)C)cc1	-24	105	104	90
COc1ccc(NC(=O)C2Cc3ccccc3CN2S(=O)(=O)c2ccccc2)cc1OC (stereo not given)	.	99	91	83
O=S(=O)(NCc1nc2cccnc2n1Cc1ccccc1Cl)c1ccc2c(c1)CCCC2	.	103	121	94
N#Cc1ccc(-c2csc(-c3ccc(C(F)(F)F)cc3)n2)cc1	-16	102	106	89
O=C(O)CCC(=O)Nc1nncs1	-25	100	88	84
O=C(O)CCc1nc2c(cnn2-c2ccccc2)c(=O)[nH]1	-28	.	82	84
Cc1ccc(C2C3=C(CC(C)(C)CC3=O)N(CCN3CCOCC3)C3=C2C(=O)CC(C)(C)C3)cc1	-29	97	85	84
O=C(Nc1ccc(CN2CCCCC2)cc1)c1c(F)c(F)c(F)c(F)c1F	-11	107	113	95
O=C(/C=C/c1ccco1)Nc1ccc(Cl)c(-c2nc3cc(Cl)ccc3o2)c1	-45	104	95	87
COc1cccc(Cn2c(=O)n(-c3ccc(C)c(F)c3)c(=O)c3sc4ccccc4c32)c1	-20	108	103	90
CC(C)c1ccc(-n2c(-c3ccco3)nc3c(cnn3-c3ccc(Cl)cc3)c2=O)cc1	-8	100	89	80
COc1ccc(Br)cc1CNC(=O)C1COc2ccccc2C1 (stereo not given)	.	103	95	97
COc1ccc(-c2cc(C(F)F)n3ncc(C(=O)Nc4cc(OC)ccc4OC)c3n2)cc1	-34	109	83	92
FC(F)(F)c1cc(Oc2ncnc3c2oc2ccccc23)cc(C(F)(F)F)c1	4	.	86	97
O=C(O)COc1ccc2cc(-c3cc(F)cc(F)c3)c(=O)oc2c1	-86	102	.	.
COc1ccc(N2CCN(C(=O)c3sc4nc5n(c(=O)c4c3C)CCC5)CC2)cc1	4	93	94	107

Full records, looked up by structure. Values in the order: HCMV UL50-53 inh | GIV-Gai inh | Sa growth 42C | Sa growth 42C second temp
O=C1CSC(=NC2CCCC2)N1 in the list: -11 | . | 93 | 92
COc1ccc(Br)cc1CNC(=O)C1COc2ccccc2C1 (stereo not given) in the list: . | 103 | 95 | 97
Cc1ccc(-c2cc3cc(C)c(C#N)c(N4CCCCCC4)n3c2)cc1 in the list: -18 | . | 100 | 99
Cc1ccccc1NC(=O)Cc1nc(Cn2cc(S(=O)(=O)N3CCCC3)ccc2=O)cs1 in the list: -10 | . | 95 | 90
CCc1cc2c(cc3c(=O)n(CC(=O)N4CCN(c5cccc(C)c5C)CC4)nc(CC)n32)s1 in the list: -27 | 99 | 109 | 90

Four entries from above, set out differently:
> O=C1CSC(=NC2CCCC2)N1
  HCMV UL50-53 inh: -11
  GIV-Gai inh: .
  Sa growth 42C: 93
  Sa growth 42C second temp: 92
> COC(=O)C1=C(c2ccccc2)c2ccccc2S(=O)(=O)N1CC(=O)Nc1ccccc1C(F)(F)F
  HCMV UL50-53 inh: -6
  GIV-Gai inh: 98
  Sa growth 42C: 93
  Sa growth 42C second temp: 86
> CCc1cc2c(cc3c(=O)n(CC(=O)N4CCN(c5cccc(C)c5C)CC4)nc(CC)n32)s1
  HCMV UL50-53 inh: -27
  GIV-Gai inh: 99
  Sa growth 42C: 109
  Sa growth 42C second temp: 90
> CCN(CC)S(=O)(=O)c1ccc(N2CCc3cc(OC)c(OC)cc3C2)nc1
  HCMV UL50-53 inh: -31
  GIV-Gai inh: .
  Sa growth 42C: 63
  Sa growth 42C second temp: 70

(continued)
SMILES	HCMV UL50-53 inh	GIV-Gai inh	Sa growth 42C	Sa growth 42C second temp
Cn1nc(-c2ccccc2F)c2cc(C(=O)NCc3ccc(F)cc3)sc21	4	98	106	87
C=CCN(CC=C)C(=O)Cn1c(C)c(Cc2ccccc2)c(=O)n2nc(-c3ccccc3)nc12	0	108	.	.
COc1ccccc1CNC(=O)c1cccc(NC(=O)N2CCSc3ncccc32)c1	.	105	100	91
C/C(Nc1nc(-c2cc(C)n(Cc3ccccc3Cl)c2C)cs1)=C(/C#N)C(N)=O	-18	.	118	96
Cc1ccc(CN2CCC(CNC(=O)Nc3ccc(Cl)cc3)C2)cc1 (stereo not given)	-24	102	94	57
O=C(COc1ccc(Cl)cc1)N1CCCC1	13	.	79	91
CN1CCN(C(=O)c2ccc3c(c2)N(Cc2ccccc2)CCS3)CC1	9	105	105	100
CN1CCC(N(C)C(=O)c2cc(-c3ccccc3Cl)nc3ccccc23)CC1	-1	.	93	98
COC(=O)c1cc(S(=O)(=O)Nc2cccc(OC)c2)c(C)n1C	-31	102	.	.
CCn1cnc(C(=O)NC)c1C(=O)NC	-5&8	98	93	86
COc1cccc(C(=O)Nc2sc3c(c2C(N)=O)CCN(C(C)=O)C3)c1OC	-16	138	101	87
O=C(O)CSC1CCC(=O)N1 (stereo not given)	-14	100	.	.
CC(=O)c1ccc(N2CCN(C(=O)C3CCN(S(=O)(=O)c4c(C)noc4/C=C/c4ccc(C)cc4)CC3)CC2)cc1	.	106	126	113
N#Cc1ccccc1CSc1nc2ccccc2n1-c1ccccc1	-34	.	103	95
CC(=O)NC1(C(F)(F)F)C(=O)Nc2c1c(=O)n(C)c(=O)n2C (stereo not given)	-9	103	92	91
CC(C)c1ccc(C2Oc3ccccc3C3CC(c4ccc(Br)cc4)=NN32)cc1 (stereo not given)	-2	98	.	.
CC1Cc2cc(S(=O)(=O)N(C)CC(=O)Nc3ccccc3Cl)ccc2N1C(=O)C1CC1 (stereo not given)	-16	103	.	.
COc1ccc(N/C(N)=N/c2nc(C)cc(=O)[nH]2)cc1	0	104	95	93
COc1cccc(NC(=O)CC(C)S(=O)(=O)c2ccc3c(c2)NC(=O)CO3)c1 (stereo not given)	.	107	83	80
Cc1ccc(OCCNC(=O)c2ccc(C)o2)cc1	-20	.	95	94
CCOC(=O)N1CCC(NC(=O)c2c(C)nn(-c3cccc(C)c3)c2-n2cccc2)CC1	.	101	98	78
CCc1ccc(-c2n[nH]c(=O)c3c2CCCC3)cc1S(=O)(=O)N1CCN(c2ccccc2)CC1	0	102	.	.
Cc1c(N2CCN(C(=O)CC3CCCC3)CC2)c(=O)n(C)c(=O)n1-c1ccccc1	-14	114	.	.
COc1cc2c(cc1OC)C1C(C(=O)N3CCC(Cc4ccccc4)CC3)c3ccccc3C(=O)N1CC2 (stereo not given)	-12	104	.	.
O=c1c2ccccc2n2c(SCc3ccc(F)cc3)nnc2n1Cc1ccccc1	-37	101	.	.
Cc1ccc2c(c1)CCCN2C(=O)c1csc(C)c1	-2	105	110	112
CCC(Sc1nc2nccnc2c(=O)n1Cc1ccc(C)cc1)C(=O)NC1CCCCC1 (stereo not given)	-46	100	116	79
O=C(Nc1cccc(-c2nc3ccccc3o2)c1)c1cccc2c(Cl)cccc12	-25	103	88	86
CCOC(=O)C1CCN(C(=O)c2cc3c(-c4ccc(OC)c(OC)c4)nn(C)c3s2)CC1	9	100	103	98
Cn1c(=O)c(-c2cc(-c3ccccc3C(=O)NN)n(-c3ccccc3)n2)c(O)c2ccccc21	-13	.	95	83
